From PubChem
Rango complex inh: prevents formation of the Rango-importin beta complex; Rango CFP/YFP FRET sensor + importin beta, 45 min; Potency, µM (top dose mostly 92.2 µM), inactives show at the highest dose inhibition of complex formation; 0.031% of 340,000 active; active = rising FRET ratio curve, often small or poorly fitted; inconclusive = mostly compound fluorescence or quenching in the first reads; inactive = flat curves in all reads;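 further: potency means the concentration at half of the fitted maximal effect; 0% = DMSO wells and 100% = buffer wells lacking importin beta; nearly all actives have a fitted effect of over 15% in size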
Target sequence (Q14974 whole entry, looked up): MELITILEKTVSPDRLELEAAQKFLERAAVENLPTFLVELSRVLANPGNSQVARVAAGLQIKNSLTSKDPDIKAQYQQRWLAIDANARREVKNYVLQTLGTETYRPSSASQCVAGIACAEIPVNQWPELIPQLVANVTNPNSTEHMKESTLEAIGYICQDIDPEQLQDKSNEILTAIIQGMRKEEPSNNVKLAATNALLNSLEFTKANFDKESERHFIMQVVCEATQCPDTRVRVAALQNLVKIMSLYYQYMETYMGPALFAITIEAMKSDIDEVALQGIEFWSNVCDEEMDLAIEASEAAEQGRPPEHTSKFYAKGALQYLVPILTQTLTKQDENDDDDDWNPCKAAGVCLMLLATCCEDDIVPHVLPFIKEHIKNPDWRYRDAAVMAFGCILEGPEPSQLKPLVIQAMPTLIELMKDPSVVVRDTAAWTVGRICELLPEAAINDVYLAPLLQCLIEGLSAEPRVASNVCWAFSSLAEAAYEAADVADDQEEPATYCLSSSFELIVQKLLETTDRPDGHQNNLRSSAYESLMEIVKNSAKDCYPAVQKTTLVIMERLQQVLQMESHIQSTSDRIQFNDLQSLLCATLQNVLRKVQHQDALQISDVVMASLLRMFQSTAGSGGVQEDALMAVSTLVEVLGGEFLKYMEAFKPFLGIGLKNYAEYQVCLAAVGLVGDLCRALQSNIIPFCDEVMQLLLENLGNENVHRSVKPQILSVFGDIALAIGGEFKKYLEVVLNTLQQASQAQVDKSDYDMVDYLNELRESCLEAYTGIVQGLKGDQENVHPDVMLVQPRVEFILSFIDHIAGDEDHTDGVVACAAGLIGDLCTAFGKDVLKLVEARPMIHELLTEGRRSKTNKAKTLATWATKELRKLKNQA
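FRET biosensor Rango (snurportin 1 IBB between N-terminal EYFP and C-terminal Cerulean), 50 nM in PBS/1 mM DTT/0.02% Tween-20/0.1% BSA, preincubated 5 min RT with compound; 0.125 microM importin beta added, 45 min RT, CFP/YFP FRET ratio read.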
GLA inh pH 4.5: blocks human alpha-galactosidase A at pH 4.5; purified enzyme, 4-MU-alpha-Gal fluorescence, pH 4.5; activity change, negative = inhibition, % at 105 µM; 230,000 tested, under 10 active; inconclusive = small, poorly fitted or top-dose-only inhibition, or a rising curve; inactive = flat fitted curve, though single readings scatter; no compound was filed as active;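 further: 0% = full activity with enzyme and -100% = basal without enzyme; dose as in the result columns while the protocol names 77 µM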
Rango release inh: inhibition of RanGTP-driven Rango-importin beta dissociation. Biochemical FRET Rango-importin beta, RanGTP-induced dissociation. Potency, µM (top dose mostly 46.1 µM), without a hit: at the highest dose activity change, negative = inhibition. 0.071% of 340,000 active. AID 540253; active means falling FRET ratio curve, often poorly fitted, with flat reads before Ran was added; inconclusive means other falling curves, or compound fluorescence or quenching; inactive means flat or rising ratio curve;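 further: potency means the concentration at half of the fitted maximal effect; % of control where 0% means no effect; nearly all actives have a fitted effect of over 45% in size; -100% = wells without RanGTP and RCC1; the record marks most hits as doubtful in a second field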
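Rango (0.1 uM)–importin beta (0.25 uM) complex; RanGTP-RCC1 trigger; 45 min RT; CFP/YFP FRET read.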
miR-21 FLuc: raises the signal of a miR-21 reporter | HeLa miR-21 FLuc reporter, luciferase, 48 h | Potency, µM (series often up to 38.3 µM), for inactives: top-dose reporter change, positive = more light | 340,000 tested, under 10 active | AID 2288; active = well fitted rising curve with a large enough effect; inconclusive = small, poorly fitted or top-dose-only effect; inactive = no such curve, though single readings can be large or run the other way;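 further: % of control where 0% means no effect; miR-21 action dims this reporter so a rising signal means less miR-21 action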
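Luminescence from a firefly luciferase reporter carrying a miR-21 binding site downstream, stably expressed under a CMV promoter in HeLa cells that make miR-21 endogenously, reports miRNA modulation after 48 h compound exposure up to approximately 40uM final.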
The depositor's hits bear a star; u = inconclusive; x = no result given; & = joins results of further samples; [ ] = another dose, or the depositor's remark. These rows are one share of the data (hit frequency here may not be typical).

SMILES	Rango complex inh	GLA inh pH 4.5	Rango release inh	miR-21 FLuc
Cc1ccc(-c2nc(-c3cccnc3)sc2CC(=O)Nc2ccc3nc(C)sc3c2)cc1	-0.1%	-24	u	-2%
N=c1scc(-c2ccccc2)n1/N=C/c1ccco1	1.1%	-2	-17%	-51%
O=C(COc1ccc(S(=O)(=O)N2CCOCC2)cc1)NCc1ccccn1	3.7%	x	33%	-1%
CCN1CCCC1CNC(=O)COc1cc(=O)n(C)c2ccccc12 (configuration not stated)	-2.3%	6	4%	-1%
C=CCOC(=O)C1=C[C@@H](c2ccc(C(F)(F)F)cc2)[C@H](CCCO)[C@@H](OCC)O1	-1.0%	-10	14%	12%
Cc1cc(-c2nnc(SCC(=O)Nc3cccc(Cl)c3)n2N)n[nH]1	7.7%	x	-4%	-2%
C=C1CCc2c([nH]c3ccc(OCC(C)C)cc23)C1=O	u	x	-7%	u
COc1ccc(OCCCC(=O)OC(C)C(=O)Nc2ccc(S(N)(=O)=O)cc2)cc1 (configuration not stated)	3.7%	x	9%	x
CCc1c(C)nc2ncnn2c1NCCc1ccc(OC)c(OC)c1	3.8%	-3	0%	-2%
CCOC(=O)c1sc(NC(=O)C(CC)OC(=O)C(CC(C)C)NC(=O)c2ccccc2)nc1C (configuration not stated)	4.1%	-5	21%	-3%
C/C=C(\C)CN1CCN(c2ccccc2)CC1	-3.9%	1	10%	-6%
CCOC(=O)c1[nH]c2ccc(F)cc2c1NC(=O)c1ccccc1C(=O)O	0.9%	x	4%	-43%
O=C(COC(=O)CCC1CCCC1)Nc1ccc(Cl)cn1	0.7%	-5	1%	0%
COc1ccc(CCNC(=O)C2CC3Cn4c(nc5ccccc54)C3N2Cc2ccccc2)cc1 (configuration not stated)	-1.5%	x	4%	x
Cc1cc(S(=O)(=O)NCC2CC2)c(Cl)cc1Cl	0.9%	x	3%	-6%
O=C1OCC2=C1C(c1ccc(F)cc1)CC(=O)N2c1ccccc1 (configuration not stated)	x	0	x	-4%
COc1ccc(C(=O)N2CCN(c3ccc(N4CCOCC4)nn3)CC2)cc1OC	-4.2%	x	-3%	x
C/C=C/c1ccc(OCc2cc(=O)n3cc(C)ccc3n2)c(OC)c1	-0.1%	-3	-1%	-9%
COc1ccccc1-c1sc2cc3c(cc2c1-c1ccc(OCCN2CCOCC2)cc1)OCO3	0.3%	x	-6%	x
CCC(C)c1ccc(OCC(=O)Nc2ccc(CN3CCOCC3)cc2)cc1 (configuration not stated)	1.1%	x	0%	0%
CN1CCN(C(=O)c2ccc(OCCOc3ccccc3)cc2)CC1	1.8%	x	18%	-7%
CCOC(=O)N1CCC(NC(=O)C(NC(=O)C2CCC(C)CC2)C(C)CC)CC1 (configuration not stated)	x	0	x	-2%
O=C(C#Cc1ccccc1)NCc1ccccc1F	0.5%	x	4%	-5%
CN1CCC(CNC(=O)Nc2csc3ccccc23)CC1	-1.2%	7	-11%	-18%

Entries from the list above containing a thiophene ring, fused or not, in the order listed:
SMILES	Rango complex inh	GLA inh pH 4.5	Rango release inh	miR-21 FLuc
COc1ccccc1-c1sc2cc3c(cc2c1-c1ccc(OCCN2CCOCC2)cc1)OCO3	0.3%	x	-6%	x
CN1CCC(CNC(=O)Nc2csc3ccccc23)CC1	-1.2%	7	-11%	-18%

(next part)
SMILES	Rango complex inh	GLA inh pH 4.5	Rango release inh	miR-21 FLuc
O=C(CN1C(=O)NC2(CCCC2)C1=O)NCC1CCCO1 (configuration not stated)	1.4%	-26	-1%	-2%
COc1ccc(S(=O)(=O)N2CCOCC2)cc1C(=O)NCC(c1ccco1)N1CCCC1 (configuration not stated)	-0.3%	x	5%	x
CC(C)(C)OC(=O)NCCCCCNC(=O)c1nc[nH]c1C(=O)N1CCc2ccccc2C1	-1.6%	x	19%	x
O=C(NCCCCNC(=O)c1ccc(Br)cc1)c1ccc(Br)cc1	0.4%	x	-11%	-4%
O=C(Nc1nccs1)c1ccc(Br)c(S(=O)(=O)N2CCOCC2)c1	u	-9	-1%	0%
CCOC(=O)Cc1csc(NC(=O)c2ccc(NC(C)=O)cc2)n1	-0.7%	-12	2%	-12%
CC(C)CC(=O)Nc1sc2c(c1C#N)CC(C)(C)NC2(C)C	1.8%	3	11%	-1%
O=C1CS/C(=N/N=C/c2ccccc2OS(=O)(=O)c2ccccc2)N1	5.4%	1	0%	-3%
CC[C@@]1(C(=O)OC)N[C@H](CN(C)C(=O)Nc2ccc(C(F)(F)F)cc2)[C@@H]2C(=O)N(Cc3ccccc3)C(=O)[C@@H]21	-1.5%	x	16%	x
COc1cc(C2N(c3ccc(F)cc3)C(=O)C3CCCN32)cc(OC)c1OC (configuration not stated)	-4.2%	-6	-22%	1%
O=C(c1cc([N+](=O)[O-])ccc1Cl)N1CCN(Cc2ccccc2)CC1	2.1%	x	1%	-1%
O=C(NCc1ccc(F)cc1)C(C(=O)NCc1ccc(F)cc1)c1ncc(C(F)(F)F)cc1Cl	1.1%	0	23%	1%
CC1CCCN(S(=O)(=O)c2cc(C(=O)NCCc3ccc(S(N)(=O)=O)cc3)ccc2Cl)C1 (configuration not stated)	3.1%	x	-6%	x
COC(=O)Cc1c(C)c2ccc(OCC(=O)NCc3ccc4c(c3)OCO4)cc2oc1=O	-1.5%	7	-12%	1%
COc1ccccc1CNS(=O)(=O)c1csc(C(N)=O)c1	1.9%	x	20%	-2%
COc1ccc(Br)cc1/C=N/N1CCN(Cc2ccccc2)CC1	-2.4%	0	-11%	-6%
O=C(Cn1c(=O)oc2ccccc21)Nc1nc(-c2ccccc2)cs1	0.2%	0	6%	-13%
COc1ccc(-n2cc(-c3ccc(OC)c(OC)c3)[nH]c2=S)cc1	0.3%	5[21.1 µM]	6%	-16%
COC(=O)C1=C(NC(=O)c2ccccc2[N+](=O)[O-])CCS1	-2.3%	-1	0%	-7%
Cc1ccc(C(=O)C(SC(C)(C)C)n2cncn2)cc1 (configuration not stated)	0.2%	x	-6%	-7%
O=S(=O)(NCC1CCCO1)c1cccc(S(=O)(=O)N2CCCC2)c1 (configuration not stated)	1.3%	14	3%	-3%
COc1ccc(S(=O)(=O)N2CCN(C3CCCC(C)C3)CC2)cc1 (configuration not stated)	-3.5%	x	6%	5%
COCCNC(=O)c1cc2nc3c(c(C(F)(F)F)n2n1)CCc1ccccc1-3	-0.5%	6	8%	-6%
COCC(C)NCc1ccc(C)cc1C (configuration not stated)	0.2%	-5	15%	-4%
c1ccc(C2=Nn3c(nnc3-c3ccccn3)SC2)cc1	-0.1%	5	-7%	-10%
COC(=O)C1C(=O)c2c([nH]c(C(=O)OCC3CCCO3)c2C)CC1C (configuration not stated)	-3.1%	-2	7%	-35%
O=C(NNc1cccc(Cl)n1)c1cccnc1Cl	-0.2%	-7	-13%	0%
COCCn1c(-c2ccc(Br)cc2)csc1=Nc1cccnc1	2.6%	2	6%	15%
CC1=C(OC(=O)c2ccc(Br)cc2)C(C)(C)C(c2ccccc2)OC1=O (configuration not stated)	3.7%	1	5%	-1%
COc1ccc(CNC(=O)C2CCN(c3nn4c(=O)cc(C)nc4s3)CC2)cc1	4.1%	x	3%	-7%
Cc1nc2nc(SCC(=O)NCCCN3CCCCCC3)nn2c(C)c1Cc1ccccc1	-0.1%	x	-1%	-1%
CCCc1cc(C(=O)OC)c(NC(=O)c2cc(C)on2)s1	-0.2%	-4	-5%	-7%
COCCNC(=O)C(c1ccc(C)o1)N(C(=O)c1snc(C(N)=O)c1N)c1cc(C)cc(C)c1 (configuration not stated)	-3.5%	9	-12%	6%
CCOC(=O)CC(=O)CSc1nc2ccccc2c(=O)n1-c1ccc(C(=O)N2CCOCC2)cc1	u	-9	-4%	-16%
O=c1c(N2CCOCC2)c(N2CCOCC2)c1=O	-1.0%	-7	-6%	0%
CCOC(=O)c1nn(-c2ccc(Cl)cc2C)ccc1=O	-0.2%	x	-2%	-2%
COc1ccc2cc(C(=O)O)n(CC(=O)c3ccccc3)c2c1	-0.3%	x	-12%	-6%
COc1ccccc1C(=O)Nc1ccnn1C1CCN(C(=O)c2cnsn2)CC1	1.5%	x	24%	-10%
CC(=O)c1c(C)[nH]c(C(=O)OCC(=O)NCc2ccc3c(c2)OCO3)c1C	-1.5%	x	-16%	x
Cc1ccc(S(=O)(=O)CCC(=O)OC2CC(C)OC2=O)cc1 (configuration not stated)	7.5%	x	8%	x
Cc1cccc(C(=O)O[C@H]2[C@H](Cc3ccccc3)NS(=O)(=O)[C@H]3CC4C=C[C@]23O4)c1	0.9%	x	10%	x
CN(CC(=O)Nc1ccc(F)cc1)C(=O)c1cccc(S(=O)(=O)N2CCN(c3ccc(F)cc3)CC2)c1	1.3%	x	-8%	x
CCOC(=O)C1=C(COC(=O)c2ccc(OC)c(OC)c2OC)NC(=O)NC1C (configuration not stated)	2.3%	x	-4%	x
COC(=O)C1=C(C(=O)OC)[C@@H]2N(C)c3ccc(OC)cc3[C@@]23C[C@@H](C(=O)OC)N=C3N1	-1.1%	-1&0	-11%	-1%
Cc1cc(C)n(-c2ccc(C(=O)OCC(=O)c3c(N)n(C)c(=O)n(C)c3=O)cc2)n1	0.0%	0	2%	-2%
CC(C)(C)NS(=O)(=O)c1ccc(N2C(=O)c3ccccc3C2=O)cc1	-0.6%	5	16%	-2%
O=[N+]([O-])c1ccc(Nc2cccc3c2[nH]c2c(-c4ccccc4)nccc23)c([N+](=O)[O-])c1	-3.2%	x	3%	x
COc1ccccc1-c1oc2ccccc2c1C#CC(C)(C)O	1.3%	x	-11%	x
COc1ccc2nc(SCC(=O)O)nc(C)c2c1	-0.6%	-4	1%	-14%
CCN(CC(=O)Nc1ccccc1OC)CC(=O)Nc1c(Cl)ccc(C)c1Cl	0.3%	6	0%	9%
COc1cccc(CNC(=O)C2CCN(S(=O)(=O)c3ccccc3)CC2)c1	7.2%	-11	8%	-3%
CN(C)c1ccc(C=NNc2ccccn2)c(Cl)c1	0.8%	x	-9%	x
Cc1[nH]c2ccccc2c1/C=N/NC(=O)c1cccc(S(=O)(=O)Nc2cccc(C(F)(F)F)c2)c1	u	-3	u	2%
O=C(NN1C(=O)NC2(CCCCC2)C1=O)c1cc2ccccc2o1	2.2%	x	1%	x
C[C@@]12C(=O)N(CC3CCCO3)CC(=O)N1[C@@H]1c3ccccc3OC[C@@H]1[C@@H]2c1ccccc1 (some centres not stated)	0.3%	x	3%	x
Cc1cc(/C=C2\C(=N)N3N=C(CC(=O)N4CCOCC4)SC3=NC2=O)c(C)n1Cc1ccccc1	u	-16	u	-1%
CCc1ccccc1NC(=O)c1cccs1	4.1%	1	-2%	-2%
COC(=O)Cn1c(N2CCCC2)nc2c1c(=O)n(C)c(=O)n2C	0.0%	x	-8%	0%

Of the compounds above, these contain a Cl atom.
SMILES	Rango complex inh	GLA inh pH 4.5	Rango release inh	miR-21 FLuc
Cc1cc(-c2nnc(SCC(=O)Nc3cccc(Cl)c3)n2N)n[nH]1	7.7%	x	-4%	-2%
O=C(COC(=O)CCC1CCCC1)Nc1ccc(Cl)cn1	0.7%	-5	1%	0%
Cc1cc(S(=O)(=O)NCC2CC2)c(Cl)cc1Cl	0.9%	x	3%	-6%
O=C(c1cc([N+](=O)[O-])ccc1Cl)N1CCN(Cc2ccccc2)CC1	2.1%	x	1%	-1%
O=C(NCc1ccc(F)cc1)C(C(=O)NCc1ccc(F)cc1)c1ncc(C(F)(F)F)cc1Cl	1.1%	0	23%	1%
CC1CCCN(S(=O)(=O)c2cc(C(=O)NCCc3ccc(S(N)(=O)=O)cc3)ccc2Cl)C1 (configuration not stated)	3.1%	x	-6%	x
O=C(NNc1cccc(Cl)n1)c1cccnc1Cl	-0.2%	-7	-13%	0%
CCOC(=O)c1nn(-c2ccc(Cl)cc2C)ccc1=O	-0.2%	x	-2%	-2%
CCN(CC(=O)Nc1ccccc1OC)CC(=O)Nc1c(Cl)ccc(C)c1Cl	0.3%	6	0%	9%
CN(C)c1ccc(C=NNc2ccccn2)c(Cl)c1	0.8%	x	-9%	x
